Env fusion inh = blocks HIV Env-driven cell-cell fusion | HeLa-JRFL Env/CEM21 cell fusion, luciferase | inhibition, % at 12.3 µM | 1.1% of 360,000 active | AID 651610;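 active means mean replicate inhibition score of at least 50 and every replicate individually at or above 50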;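 further: 0% = plate neutral controls and 100% = maraviroc near 300 nM; one replicate is shown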
MT1-MMP act inh = blocks activation of human MT1-MMP; HT1080 RFP-PRO-GFP cells, GFP/RFP ratio fluorescence, overnight; percent of plate control window, DMSO zero; GFP/RFP ratio change, % at 20 µM; 0.061% of 360,000 active;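 active means GFP/RFP ratio change of at least 30% with cell ATP level not reduced by more than half and red fluorescence within 50% of control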; further: strong numbers were not always called active
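Test system: HT1080 RFP-PRO-GFP cells; Benchmarks: DMSO and RFP-L50D-GFP cell wells; Timing: cells overnight before dosing, compound overnight, 37 °C, 5% CO2; Compound: one 20 µM compound dose with 1% DMSO; Read-out: GFP/RFP fluorescence ratio.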
eIF4H inh = inhibitors of RNA binding by human eIF4H. inhibition, % at 35 µM. 0.94% of 290,000 active. eIF4H fluorescence polarization binding assay. AID 2012;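 active means 50% or more with normal probe brightness, or confirmed in later tests; about a fifth of its hits are not listed in these tables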;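 further: calls also rest on retests at 20 µM and on dose response follow-up; 0% = protein and probe with vehicle and 100% = probe without protein; strong numbers were not always called active; many hits fall short of the cut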
PABP polyA inh = PABP-poly(A) binding inhibition; P11940; inhibition, % at 35 µM; PABP-poly(A) RNA binding, fluorescence polarization; AID 2014; 1% of 290,000 active;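 active means 50% or more with normal probe brightness, or confirmed in later tests; about a fifth of its hits are not listed in these tables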;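 further: calls also rest on retests at 20 µM and on dose response follow-up; controls were probe without protein and protein plus probe with vehicle; some compounds called inactive have numbers as strong as hits; many hits fall short of the cut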
Target sequence (P11940 whole entry, looked up): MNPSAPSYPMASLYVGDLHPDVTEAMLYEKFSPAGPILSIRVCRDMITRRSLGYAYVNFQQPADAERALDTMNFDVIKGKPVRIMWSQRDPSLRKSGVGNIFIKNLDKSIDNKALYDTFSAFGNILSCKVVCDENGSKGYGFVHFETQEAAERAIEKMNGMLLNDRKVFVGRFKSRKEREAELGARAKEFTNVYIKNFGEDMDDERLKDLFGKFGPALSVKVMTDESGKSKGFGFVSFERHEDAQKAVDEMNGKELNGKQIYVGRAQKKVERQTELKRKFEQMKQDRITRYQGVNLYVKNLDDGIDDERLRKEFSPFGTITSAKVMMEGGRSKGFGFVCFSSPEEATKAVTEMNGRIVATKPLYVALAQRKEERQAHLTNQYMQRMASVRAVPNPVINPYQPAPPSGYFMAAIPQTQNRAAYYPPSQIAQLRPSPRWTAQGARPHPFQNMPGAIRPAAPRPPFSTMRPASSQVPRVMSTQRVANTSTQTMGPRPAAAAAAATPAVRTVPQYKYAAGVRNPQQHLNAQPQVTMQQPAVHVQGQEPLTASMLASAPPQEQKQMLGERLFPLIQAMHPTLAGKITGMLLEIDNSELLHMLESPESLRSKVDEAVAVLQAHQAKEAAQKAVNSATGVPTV
Yeast UUG start = alters start codon recognition fidelity in yeast; S. cerevisiae UUG-firefly luciferase reporter, luminescence/redox ratio; activity score, % at 18.7 µM; 0.13% of 350,000 active; AID 602363;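 active means replicate mean at a twofold rise or more, about +100% in these data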;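 further: firefly luciferase made from a UUG start codon reports start codon fidelity; reporter light over untreated wells divided by growth signal over untreated wells; some hits fall short of that in this replicate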
Rce1 inh = inhibitors of yeast Ras-converting enzyme; Q03530; yeast membranes, quenched prenylated peptide cleavage fluorescence; calls only; 0.27% of 290,000 active; AID 2563;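 active means fall in fluorescence gain of 50% or more versus controls, with final raw signal at or below 3038400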;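 further: plate controls were neutral control wells for no effect and wells lacking membranes for full effect; tested at 10 µM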
Target sequence (Q03530 whole entry, looked up): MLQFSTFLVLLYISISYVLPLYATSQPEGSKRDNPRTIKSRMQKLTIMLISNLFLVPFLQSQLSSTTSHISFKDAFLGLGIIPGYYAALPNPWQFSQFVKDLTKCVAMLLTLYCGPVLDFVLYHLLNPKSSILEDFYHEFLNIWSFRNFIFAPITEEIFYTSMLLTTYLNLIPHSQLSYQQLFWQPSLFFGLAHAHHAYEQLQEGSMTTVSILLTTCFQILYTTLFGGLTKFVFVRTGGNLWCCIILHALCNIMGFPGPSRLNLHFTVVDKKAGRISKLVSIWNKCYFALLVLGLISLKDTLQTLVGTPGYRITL
CSC inhib = cancer stem cell inhibition; inhibition, % at 7.5 µM; cancer stem cell-like cells viability, luminescence; 1.1% of 300,000 active;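 active means mean at 75% or more and at least half the replicates too; tested in HMLE shEcad cells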;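 further: 0% = median of negative and 100% = median of positive control wells; the first replicate is given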
eIF4H inh retest = second read-out of eIF4H inh, no call of its own (marks repeat the call); inhibition, %; compound at 20 µM; confirmation average;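 mean of two retest wells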
PABP polyA inh retest = second read-out of PABP polyA inh, no call of its own (marks repeat the call); inhibition, %; compound at 20 µM; confirmation repeats;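 mean of two retest wells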
MT1-MMP act inh RFP = further read-out of MT1-MMP act inh, marked with its call; RFP signal change, %; measured here: RFP expression control read;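 0 = vehicle wells; hits needed this value within 50% of zero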
* = called active by the depositor; i = inactive; · = not tested or not shown. This is a subset, so the mix of outcomes need not match the whole.

SMILES | Env fusion inh | MT1-MMP act inh | MT1-MMP act inh RFP | eIF4H inh | PABP polyA inh | Yeast UUG start | Rce1 inh | CSC inhib | others
COc1cccc(CN2CC(C(=O)NCc3cnn(C)c3)CCC2=O)c1 (centres undefined) | 0 | 0 | 2 | -2 | 2 | -16 | i | -8
Cc1cccc(NC(=S)NCc2ccc(F)cc2)c1 | -14 | 2 | -2 | -4 | -14 | -14 | i | 12
CC1CCN(C(C(=O)Nc2ccc3c(c2)OCO3)c2ccccc2)CC1 (centres undefined) | 1 | -1 | 5 | -3 | 21 | -13 | i | -5
CCn1c(CSCc2ccc(C)cc2)nnc1SCC(=O)NCc1ccccc1 | · | 3 | 1 | 8 | 10 | -2 | i | -10
CC(=O)c1ccc(NC(=O)c2ccc(CSc3ccccc3)o2)cc1 | 0 | -1 | -7 | -9 | 3 | · | i | -3
COc1ccc(C(=O)OCC(=O)c2c[nH]c3ccccc23)c(OC)c1 | -24 | 14 | -7 | · | · | -7 | · | 4
CS(=O)(=O)c1ccc(N)c(SSc2cc(S(C)(=O)=O)ccc2N)c1 | -1 | -4 | 2 | · | · | -13 | i | 1
Cc1cc(C)nc(NNC2=CC(=[N+]3CCCCC3)CC(C)(C)C2)n1 | 3 | -7 | -1 | 4 | 7 | · | i | 4
Cc1cccc(NC(=O)CSc2nc3ccccc3nc2N2CCCC2)c1C | · | 2 | -1 | 2 | -3 | -6 | i | 7
COc1ccc(N=Cc2[nH]c3ccccc3c2O)cc1 | -4 | -1 | 8 | 9 | 14 | · | i | -8
COc1ccccc1C1CC(=O)Oc2ccc(C(C)(C)C)cc21 (centres undefined) | 25 | 3 | 5 | · | · | -4 | · | ·
CCC(C)(C)n1nnnc1C(c1cccs1)N1CCCCC1 (centres undefined) | 12 | -5 | 1 | -3 | -8 | -6 | i | 1
CCCc1nc2ccc(NC(C)=O)cc2c(=O)n1Cc1ccc(Cl)cc1 | -54 | -3 | -11 | -3 | -14 | · | i | 15
CN(C)c1ccc(NC(=O)Cn2ncn3c(cc4ccccc43)c2=O)cc1 | · | 3 | 5 | -13 | -12 | -8 | · | 3
N/C(=N\N=C\c1cccs1)SC1CC(=O)N(c2ccc(Br)cc2)C1=O (centres undefined) | 3 | 20 | -2 | 0 | 0 | · | i | 16
CN(C(=O)c1ccc2c(Cl)c3c(nc2c1)CCC3)c1ccccc1 | -55 | -3 | -11 | 3 | -7 | -1 | i | ·
COc1ccccc1C(=O)Nc1ccc(OCC(=O)N2C(C)CCCC2C)cc1 (centres undefined) | 10 | 4 | 0 | · | · | 9 | · | ·
COc1cccc(C2(O)CCN(C(=O)C3CC3)CC2)c1 | · | -2 | -2 | 4 | -7 | -11 | i | -7
Cc1cc(C(=O)c2ccccc2)c(NC(=O)CCl)s1 | 8 | -2 | 2 | 1 | -1 | · | i | 22
O=C(CO/N=C/c1c(Cl)cccc1Cl)NNC(=O)c1cccc(Cl)c1 | 2 | 6 | 3 | -8 | -10 | · | i | -15
CCOC(=O)C(CCCCOc1cccc(CC)c1)C(=O)OCC | 6 | 1 | 0 | -1 | -4 | -9 | i | -2
O=C(NCCCN1CCOCC1)C(=O)c1c[nH]c2ccccc12 | 0 | -3 | 0 | -7 | 7 | -13 | · | -11
O=C(C1CCC(CNc2c(N3CCCCC3)c(=O)c2=O)CC1)N1CCN(C2CCCCC2)CC1 (centres undefined) | -2 | 2 | 2 | 66 | 4 | 4 | i | 4 | eIF4H inh retest=-3;PABP polyA inh retest=4
CC(C)c1ccccc1NC(=O)C1CC(=O)N(C2CCCC2)C1 (centres undefined) | -3 | -2 | 1 | -4 | -5 | -15 | i | -3
Cc1ccc(NC(=O)C(=O)NNC(=O)c2cccs2)cc1 | 17 | 1 | 5 | -1 | -7 | · | i | 3
COc1ccccc1/C=N\Nc1ccccc1[N+](=O)[O-] | -184 | 9 | 1 | 4 | -4 | 6 | i | 16
CCOC(=O)c1ccc2nc(NC(=O)C(C)C)sc2c1 | -81 | -6 | -7 | 3 | -7 | -11 | i | 9
C=CCn1c(CCCNC(=O)c2ccccc2OC)nc2ccccc21 | · | 4 | 2 | -2 | 2 | · | i | -3
O=C(O)c1cc(-c2ccco2)nn1-c1cccc(Cl)c1 | -2 | -10 | 3 | 83 | 9.1* | · | i | -1 | eIF4H inh retest=-2;PABP polyA inh retest=99*
O=C(CSc1ccc(Cl)cc1)NNC(=O)c1cccnc1 | -2 | 0 | -1 | -2 | -15 | -19 | i | -2
Nc1c(C(=O)Nc2ccccc2)nnn1-c1ccc2c(c1)OCCO2 | -137 | 2 | -5 | -8 | -4 | -35 | i | 12
CCN(CC)C(=O)COC(=O)C1=NN(c2cc(C)ccc2C)C(=O)CC1 | 4 | 3 | 5 | -18 | -8 | -3 | · | -6
O=S(c1ccsc1)c1ccsc1 | · | 0 | 2 | 2 | 31 | -17 | i | 6
COc1ccc(C(C(=O)NC2CCCC2)N(CCCO)C(=O)c2snc(C(N)=O)c2N)cc1 (centres undefined) | 6 | 1 | 1 | -6 | 7 | -9 | i | ·
COc1ccc(C(=O)C2CCCN(Cc3cccn3-c3ccccn3)C2)c(OC)c1 (centres undefined) | 30 | -7 | -5 | 0 | 2 | -14 | i | -1
Cc1cc(NC(=O)c2ccccc2)ccc1NC(=O)c1ccccc1Cl | -2 | -1 | -2 | -1 | 1 | -25 | i | -2
COc1ccc(OC)c(NC(=O)C2CCCN(S(=O)(=O)c3c(C)noc3C)C2)c1 (centres undefined) | · | 9 | 0 | 9 | -10 | -16 | i | -5
CCOc1ccc(/C=N/NC(=S)Nc2c(C)cccc2C)cc1 | -3 | -14 | -6 | 5 | 1 | -26 | i | 6
CC(C)C1COC(c2cccn2Cc2ccccc2Cl)=N1 (centres undefined) | 7 | 1 | 0 | 0 | 11 | -22 | i | -16
O=C(CSc1nnnn1-c1ccc(O)cc1)Nc1cccc(S(=O)(=O)N2CCCC2)c1 | · | 2 | -16 | -6 | 2 | · | i | -4
Cc1ccc(SCCC(=O)Nc2ccccc2C(=O)NC(C)C)cc1 | -10 | -7 | -4 | 5 | 2 | · | i | -1
COc1ccc(CNC(=O)/C=C/C(=O)O)cc1OC | -1 | 1 | -1 | 3 | 2 | 0 | i | -18
O=C(COC(=O)COc1cccc(C(F)(F)F)c1)NC1CCS(=O)(=O)C1 (centres undefined) | 3 | -2 | 3 | · | · | -22 | i | -11
c1ccc(C(NCCNC(c2ccccc2)c2ccccc2)c2ccccc2)cc1 | 12 | -11 | -12 | 6 | 2 | 8 | i | 30
CCCCCc1nc2c(C#N)c(-c3ccc(Cl)cc3)ccn2n1 | 27 | 12 | -2 | -4 | -5 | -4 | i | 20

For convenience, seven of the compounds above:
SMILES | Env fusion inh | MT1-MMP act inh | MT1-MMP act inh RFP | eIF4H inh | PABP polyA inh | Yeast UUG start | Rce1 inh | CSC inhib | others
COc1ccc(OC)c(NC(=O)C2CCCN(S(=O)(=O)c3c(C)noc3C)C2)c1 (centres undefined) | · | 9 | 0 | 9 | -10 | -16 | i | -5
CCOc1ccc(/C=N/NC(=S)Nc2c(C)cccc2C)cc1 | -3 | -14 | -6 | 5 | 1 | -26 | i | 6
CC(C)C1COC(c2cccn2Cc2ccccc2Cl)=N1 (centres undefined) | 7 | 1 | 0 | 0 | 11 | -22 | i | -16
O=C(CSc1nnnn1-c1ccc(O)cc1)Nc1cccc(S(=O)(=O)N2CCCC2)c1 | · | 2 | -16 | -6 | 2 | · | i | -4
Cc1ccc(SCCC(=O)Nc2ccccc2C(=O)NC(C)C)cc1 | -10 | -7 | -4 | 5 | 2 | · | i | -1
COc1ccc(CNC(=O)/C=C/C(=O)O)cc1OC | -1 | 1 | -1 | 3 | 2 | 0 | i | -18
O=C(COC(=O)COc1cccc(C(F)(F)F)c1)NC1CCS(=O)(=O)C1 (centres undefined) | 3 | -2 | 3 | · | · | -22 | i | -11

Other records.
SMILES | Env fusion inh | MT1-MMP act inh | MT1-MMP act inh RFP | eIF4H inh | PABP polyA inh | Yeast UUG start | Rce1 inh | CSC inhib | others
C1CCCCCC2(CCCCC1)OCC(CN1CCOCC1)O2 (centres undefined) | 8 | -1 | -3 | 0 | -2 | · | i | -2
COc1ccc(/C=N/N2CCOCC2)cc1Cn1nc(C)c([N+](=O)[O-])c1C | 13 | -1 | -4 | -6 | 10 | · | i | -13
CC(C)c1nc(SCC(=O)N2CCCC2)c2c(=O)n(C)c(=O)n(C)c2n1 | -3 | 3 | 3 | · | · | -4 | i | -5
COc1ccc2c(c1)cc1n2CCN=C1NCCO | -96 | -4 | 1 | -1 | -7 | · | i | -1
CCn1c(CN2CCC(C)CC2)nc2cc(S(=O)(=O)N3CCCCC3)ccc21 | 11 | 0 | 0 | · | · | 2 | · | ·
Cc1ccc(-c2nc(C)sc2CC(=O)OCC(=O)Nc2c(F)cccc2F)cc1 | 10 | 5 | 3 | -8 | 5 | · | i | -4
COc1ccc(C(=O)CN2C(=O)NC3(CCCCCC3)C2=O)cc1 | -11 | 3 | 6 | 4 | -4 | -14 | i | -24
CCc1ccc(NC(=O)c2cnn3ccccc23)cc1 | 27 | -2 | 1 | -3 | 0 | -83 | i | 19
CCCNC(=O)c1ccc(N2CCC3(CC2)CC(c2ccccc2)=NO3)c(NC(=O)c2ccc(Br)cc2)c1 | -22 | 1 | 0 | 2 | 4 | -21 | i | -6
N#CCCN(C(=O)COC(=O)COc1ccccc1Cc1ccccc1)c1ccccc1 | · | -2 | 1 | · | · | -6 | · | -7
O=C(CNS(=O)(=O)c1ccc([N+](=O)[O-])cc1)N/N=C/c1ccc(O)cc1O | 14 | 5 | -3 | -3 | 7 | 0 | i | 71
COc1cc2c(cc1O)CC[n+]1cc3c(OC)c(OC)ccc3cc1-2 | 28 | 0 | -8 | -7 | 3 | 14 | i | 0
O=C(O)C1=C(C(=O)O)C2CCC1C2 | 5 | -2 | 3 | · | · | -12 | · | ·
CC(=O)c1cccc(NC(=O)C(C)OC(=O)c2ccc3ncsc3c2)c1 (centres undefined) | · | 1 | 1 | · | · | 16 | · | -8
O=C(O)CC(C(=O)O)N1C(=O)/C(=C/C=C/c2ccco2)SC1=S (centres undefined) | -2 | 2 | 17 | 100* | 91* | -10 | i | 15
Cn1nccc1C(=O)Oc1ccc(/C=N/NC(=O)c2ccccc2O)cc1 | 9 | 4 | 0 | -2 | -10 | · | i | -7
CC1CCN(C2CCN(S(=O)(=O)c3ccc(F)cc3)CC2)CC1 | i | 3 | 1 | 2 | 2 | -16 | i | 35
O=C(OCn1ncc(Cl)c(Cl)c1=O)c1ccc(F)cc1 | · | · | · | -8 | 1 | · | i | ·
